# Sa RN4220 lethal: kills Staphylococcus aureus RN4220; S. aureus RN4220 growth, OD600, 16 h; inhibition, % (concentration not given with the values); 330,000 compounds, 0.33% hits;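 active = z-score of -3 or lower and OD600 up to 0.18 on both plates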;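 note: plate controls were untreated cells for no effect and reference antibiotic for full effect; stock transfer was 100 nL into about 80 µL; one replicate is shown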
# ugtP null kill: kills S. aureus RN4220 lacking UgtP; S. aureus RN4220 ugtP deletion, OD600 growth, 16 h; some inactives read as strong as hits; growth inhibition, % (test concentration not listed); 330,000 compounds, 0.54% hits; AID 1259309;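 active = z-score under -3 and OD600 up to 0.15 on both plates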;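 note: plate controls were untreated wells for no effect and antibiotic for full effect; wells of about 80 µL received 100 nL stock; the first replicate is given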
# Autofluor counter: flagged as autofluorescent in microsphere protease counterscreen | 360,000 compounds, 3.1% hits | fluorescence intensity (concentration not given with the values) | compound autofluorescence counterscreen, microsphere flow cytometry; stronger effect = higher value;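 active = at least 3 SD above the mean of all compounds, about 16000 in these data; inconclusive = too few beads counted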;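 note: 100 nL of 1 mM stock went into each well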
# Mtb hypoxia rep: reduces hypoxia-regulated biosensor signal in M. tuberculosis; M. tuberculosis hypoxia-regulated fluorescent reporter, fluorescence; fluorescence inhibition, % (no concentration beside the values); 300,000 compounds, 0.1% hits; AID 1159583;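 active = 35 to 45% if threefold the growth effect, above 45% if 1.5-fold the growth effect; inactive = the rest, general growth blockers included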;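 note: wells of about 50 µL received 100 nL stock; 0% = vehicle wells and 100% = reference inhibitor wells; whole bacteria with a GFP reporter of the hypoxia response; strong numbers were not always called active; many hits fall short of the cut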
# PrP UTR inh: inhibition of PrP 5' UTR reporter expression; inhibition, % (no concentration beside the values); 340,000 compounds, 0.35% hits; cell-based PrP 5' UTR mRNA reporter, plate reader;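 active = every replicate at 50% or more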;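 note: 0 = median of the neutral control wells; tested in H4 reporter cells; numbers are from one replicate; inactives centre near -14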
# BJeLR lethal: BJeLR cell viability loss; inhibition, % (concentration not given with the values); 300,000 compounds, 0.17% hits; BJeLR (HRASV12) viability, CellTiter-Glo ATP luminescence, 48 h; reference of the scale not given here; AID 1554;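 active = replicate mean above 50%; inconclusive = above 50% but judged a plate artefact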;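 note: 50 nL library stock added to about 25 µL; numbers are from one replicate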
# Mtb hypoxia rep growth: also measured in Mtb hypoxia rep; calls as there; growth inhibition, %; measured here: M. tuberculosis growth (absorbance);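 0% = vehicle and 100% = reference antibiotic; read after six days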
# Numbers without * were called inactive; ? = inconclusive; . = not tested or not shown; & = joins results of further samples.
# Second line of a record – Sa RN4220 lethal	ugtP null kill	Autofluor counter	Mtb hypoxia rep	Mtb hypoxia rep growth	PrP UTR inh	BJeLR lethal
C/C=C/c1ccc(OCCCNC2CCCC2)c(OC)c1
  -0.9	3	3238	.	.	-30	1
CCOc1ccc(N=C2NC(=O)C(CC(=O)O)S2)cc1 (stereo not given)
  -1.3	-8	3277	6	0	-13	0
O=C(C1CCN(C2CC(=O)N(c3ccc(Cl)cc3)C2=O)CC1)N1CCOCC1 (stereo not given)
  4.0	7	2592	.	.	-2	2
CCn1c(C(C)NC(=O)c2cccc(C)c2)nc2ccccc21 (stereo not given)
  -11	0	4688	-7	10	37	0
N#CC(=NNc1ccccc1)C(=N)N1CCOCC1
  4.0	2	.	-3	-1	.	.
CNC(=O)CCC(=O)Nc1ccc(C)cc1
  0.9	3	2075	3	-4	-6	2
CCOC(=O)c1c(-c2ccccc2)oc2ccc(OCC(=O)NN)cc12
  5.0	1	3326	3	3	-17	-6
CC(C)OCCCNC(=O)c1ccc2c(=O)n(Cc3ccc4c(c3)OCO4)c(=S)[nH]c2c1
  10	-3	4407	2	11	0	-1
O=C(CSc1c(F)c(F)cc(F)c1F)Nc1ccc(C2SCCS2)cc1
  -1.2	6	4460	1	-5	-24	-8
C(=Nn1cncn1)c1ccc(N2CCOCC2)cc1
  2.4	9	.	6	2	.	.
O=C(CNC(=O)C1CCCCC1)NC1=NCCS1
  2.4	1	9487	9	5	-18	8
COc1ccccc1Cn1c(=O)c2ccccc2n2c(SCc3csc(C)n3)nnc12
  10	4	9493	12	7	-20	13
Cc1ccc(CSCCNC(=O)CN2C(=O)c3ccccc3S2(=O)=O)cc1
  5.1	5	9919	11	15	-22	-10
N#Cc1cccnc1N1CCN(C(=O)c2cccs2)CC1
  1.9	8	4103	9	13	-25	-2
O=C(NNS(=O)(=O)c1ccccc1F)c1cc(-c2ccccc2)n[nH]1
  0.2	-8	3079	12	-2	-17	6
Cc1cc(C(=O)N/N=C/c2ccc3c(c2)OCO3)c2ccccc2n1
  .	.	?	.	.	-26	37
Cc1ncsc1CCOC(=O)c1cccc([N+](=O)[O-])c1
  4.3&2.1	3&13	?	9&-1	2&-4	-14&-13	-13&2
COc1ccccc1N1CC(C(=O)Nc2nnc(SCC(=O)N3CCOCC3)s2)CC1=O (stereo not given)
  2.8	4	5012	4	3	-7	-13
Cc1cc(CNC(=O)COc2ccc(C)c(C)c2)c2ccccc2n1
  2.2	2	3980	13	15	-10	5
Nc1cc(S(=O)(=O)Nc2ccccc2Cl)ccc1N1CCCC1
  13	5	3757	-2	2	-8	-2
O=C1c2ccccc2NC(c2ccccn2)N1c1ccccc1F (stereo not given)
  0.0	3	10231	6	-10	-16	8
Cc1cccc(OCC(=O)Nc2ccc(N3CCN(S(C)(=O)=O)CC3)cc2)c1C
  2.5	6	3936	5	3	-19	-5
CSc1ccc(C#N)cc1NC(=O)c1cccc(Cl)c1
  -1.4	-10	2709	.	.	9	6
CCCCn1c(N)c(N(CCOC)C(=O)CSCc2ccc(Cl)c(Cl)c2)c(=O)[nH]c1=O
  2.0	8	5646	0	0	-19	-4
CC1(C)C(O)CC[C@@]2(C)C1CC[C@]1(C)C2C(=O)C=C2C3C[C@@](C)(C(=O)O)CC[C@]3(C)CC[C@]21C (stereo not given in full)
  6.5	87*	.	-5	0	.	.
O=C(CN(CC1CCCO1)S(=O)(=O)c1ccc(S(=O)(=O)NCC2CCCO2)cc1)Nc1ccccc1 (stereo not given)
  4.3	5	8078	5	1	.	2
COc1ccc(/C(C)=N/NC(=O)c2ccncc2)cc1[N+](=O)[O-]
  .	.	3380	.	.	-14	-3
O=C(CSc1nnc(CCCO)n1-c1ccccc1)Nc1nccs1
  6.0	-2	10105	8	9	3	4
Cc1csc(NC(=O)CSc2ccc(-c3ccc(F)cc3)nn2)n1
  2.5	8	4270	1	-9	-22	1
O=C(NN=Cc1ccco1)C1COc2ccccc2O1 (stereo not given)
  2.5	-1	.	9	4	.	.
CCn1c(CNc2ccc(F)cc2)nnc1SCC(=O)Nc1ccc(OC)cc1OC
  4.8	14	10920	11	-4	-4	-3
Cc1ccc(C)c(OCCC(=O)Nc2ccc(S(=O)(=O)N3CCCC3)cc2)c1
  1.5	-6	4363	2	1	-19	.
COc1ccc(CCNC(=O)CN(c2ccc(OC)c(OC)c2)S(=O)(=O)c2ccc(C)cc2)cc1
  1.5	4	3620	8	17	-11	-1
Cn1nc(C(F)(F)F)c(C(=O)Nc2ccc(F)cc2F)c1Oc1cccc(Cl)c1
  1.6	25	10728	0	14	-5	9
COc1ccccc1Oc1ccc2c(c1)C(=O)N(CC1CCCO1)C2=O (stereo not given)
  3.6	7	?	22	4	-27	-8
O=C(NCCS(=O)(=O)NCCc1ccccc1)c1ccc2c(c1)OCO2
  6.8	13	?	4	0	-57	-10
CSc1nc(N(C)NC(=O)c2ccc(F)cc2)c2ccccc2n1
  7.4	-5	2724	17	16	16	12
CC(C)Cc1n[nH]c(=O)[nH]1
  -3.8	5	4457	.	.	-26	-3
COCCOc1ccc(C(F)(F)F)cc1NC(=O)CN1C(=O)NC2(CCc3ccccc32)C1=O (stereo not given)
  -3.7	-3	6421	12	3	-12	-3
COc1ccc(C=NNC(=O)CNC(=O)c2cccs2)cc1
  2.3	5	.	6	-7	.	.
CC(C)CN(CC(C)C)C1=N/C(=C\c2ccco2)C(=O)N1c1ccccc1
  .	.	2540	.	.	-4	17
O=C(Nc1ccc(Cl)cc1C(F)(F)F)c1ccccc1Cl
  12	-1	2175	2	4	-13	-10
O=c1cc(-c2ccccc2)nc2nc(-c3ccccc3)[nH]n12
  6.8	1	4802	.	.	-13	5
O=C(NCCCCNC(=O)c1ccccc1Br)c1ccccc1Br
  4.2	1	5898	11	3	.	-2
O=C(CCCSc1nc(-c2ccco2)cc(C(F)(F)F)n1)NCc1cccs1
  -2.6	12	4095	.	.	-12	-13
O=C(CNC(=O)c1ccco1)Nc1ccc(F)c(Cl)c1
  1.2	8	3512	7	0	-9	3
Cn1nc(C(F)(F)F)c(C(=O)Nc2ccc(C(F)(F)F)cc2)c1Cl
  9.4	1	4378	10	6	-14	-1
COc1ccccc1NC(=O)Nc1ccc(Br)cn1
  0.6	-2	2341	14	14	-19	-5
CCC(CC)C(=O)Nc1nnc(SCC(=O)N2CCN(c3ccccc3OC)CC2)s1
  2.6	-8	3707	-1	15	-14	4
CCNc1nc(Oc2ccc(=O)n(C)n2)nc(N2CCOCC2)n1
  5.6	-9	3320	1	-1	-7	14
N#Cc1c(N=Cc2ccco2)oc(-c2ccccc2)c1-c1ccccc1
  3.2	75	.	11	-4	.	.
COCCN1C(=O)N[C@@H](c2cccc(F)c2)C(C(C)=O)=C1C
  .	.	4141	.	.	-16	3
CC(C)Cn1c(N)c(C(=O)COC(=O)C2CC(=O)N(Cc3ccccc3Cl)C2)c(=O)n(C)c1=O (stereo not given)
  1.1	8	4159	2	-3	-10	22
CCOC(=O)c1ccc(S(=O)(=O)N2CCN(C(=O)C3CSC4(C)CCC(=O)N34)CC2)cc1 (stereo not given)
  -0.1	-2	6164	0	-2	-2	.
O=C(c1ccccc1)c1cnc(-c2ccccc2)s1
  3.5	5	4750	0	1	-48	5
Cc1cc2cc(CNC(=O)c3ccc4c(c3)OCO4)ccc2n1C
  6.0	-4	1744	1	-2	-1	13
O=C(Cc1ccccc1F)NCC(=O)Nc1ccccc1Br
  -2.0	12	5549	3	3	-2	-9
Cc1cccc(Nc2nnc(SCC(=O)c3c(N)n(C4CC4)c(=O)[nH]c3=O)s2)c1
  -2.3	0	6438	-3	-7	-2	.
CCc1nc(N)c(C#N)c(-c2ccc(F)cc2)c1C
  -8.3	-1	2821	6	8	-8	-8
Cn1cc(-c2nc3ccccc3[nH]2)c2ccccc21
  0.3	-4	4709	22	-8	-33	-2

# Not a retest: an excerpt of the list.
# Second line of a record – Sa RN4220 lethal	ugtP null kill	Autofluor counter	Mtb hypoxia rep	Mtb hypoxia rep growth	PrP UTR inh	BJeLR lethal
COc1ccccc1Cn1c(=O)c2ccccc2n2c(SCc3csc(C)n3)nnc12
  10	4	9493	12	7	-20	13
Cc1ccc(CSCCNC(=O)CN2C(=O)c3ccccc3S2(=O)=O)cc1
  5.1	5	9919	11	15	-22	-10
N#Cc1cccnc1N1CCN(C(=O)c2cccs2)CC1
  1.9	8	4103	9	13	-25	-2
O=C(NNS(=O)(=O)c1ccccc1F)c1cc(-c2ccccc2)n[nH]1
  0.2	-8	3079	12	-2	-17	6
Cc1cc(C(=O)N/N=C/c2ccc3c(c2)OCO3)c2ccccc2n1
  .	.	?	.	.	-26	37
Cc1ncsc1CCOC(=O)c1cccc([N+](=O)[O-])c1
  4.3&2.1	3&13	?	9&-1	2&-4	-14&-13	-13&2
COc1ccccc1N1CC(C(=O)Nc2nnc(SCC(=O)N3CCOCC3)s2)CC1=O (stereo not given)
  2.8	4	5012	4	3	-7	-13
Cc1cc(CNC(=O)COc2ccc(C)c(C)c2)c2ccccc2n1
  2.2	2	3980	13	15	-10	5
Nc1cc(S(=O)(=O)Nc2ccccc2Cl)ccc1N1CCCC1
  13	5	3757	-2	2	-8	-2
O=C1c2ccccc2NC(c2ccccn2)N1c1ccccc1F (stereo not given)
  0.0	3	10231	6	-10	-16	8
Cc1cccc(OCC(=O)Nc2ccc(N3CCN(S(C)(=O)=O)CC3)cc2)c1C
  2.5	6	3936	5	3	-19	-5
CSc1ccc(C#N)cc1NC(=O)c1cccc(Cl)c1
  -1.4	-10	2709	.	.	9	6
CCCCn1c(N)c(N(CCOC)C(=O)CSCc2ccc(Cl)c(Cl)c2)c(=O)[nH]c1=O
  2.0	8	5646	0	0	-19	-4
CC1(C)C(O)CC[C@@]2(C)C1CC[C@]1(C)C2C(=O)C=C2C3C[C@@](C)(C(=O)O)CC[C@]3(C)CC[C@]21C (stereo not given in full)
  6.5	87*	.	-5	0	.	.
O=C(CN(CC1CCCO1)S(=O)(=O)c1ccc(S(=O)(=O)NCC2CCCO2)cc1)Nc1ccccc1 (stereo not given)
  4.3	5	8078	5	1	.	2

# Next structures:
# Second line of a record – Sa RN4220 lethal	ugtP null kill	Autofluor counter	Mtb hypoxia rep	Mtb hypoxia rep growth	PrP UTR inh	BJeLR lethal
O=C(COC(=O)C1CCN(c2ccc(C(F)(F)F)cn2)CC1)NCc1ccccc1
  3.5	3	?	-5	4	-55	.
O=C(CN(C(=O)CCC(=O)Nc1nccs1)c1ccc(F)cc1)NCCc1ccccc1
  1.6	2	3533	10	8	-19	0
CCOCCCNC(=O)C(NC(=O)CNC(=O)c1ccccc1)c1ccc(OC)cc1 (stereo not given)
  1.0	7	3732	5	3	-63	-18
CCCCn1c(SCC(=O)Nc2cccc(OC)c2)nc2ccc(N3CCOCC3)cc2c1=O
  2.3	0	5476	16	9	-29	-3
Nc1nc(NC2CCCC2)cc(=O)[nH]1
  2.4	-1	3388	8	12	-4	.
Cc1cc(-c2nnco2)c(C)n1-c1ccccc1
  0.3	3	3931	.	.	-42	-7
OC1CNc2c(ccc3ccccc23)C1 (stereo not given)
  2.7	0	3795	8	10	-16	.
CC(=NCCCn1ccnc1)c1c(O)n(-c2ccccc2)c(=O)[nH]c1=O
  2.4	1	7990	14	11	-6	-5
Cc1cc(=O)[nH]c(-c2ccccc2OC(F)(F)F)n1
  3.4	10	4330	3	-7	-29	-7
COc1cc(C(=O)Nc2cccc(-n3cnnn3)c2)cc(OC)c1OC
  1.0	-1	5818	7	9	5	3
CCC(=NNC(=O)CNc1ccc(Cl)cc1C)c1ccccc1
  1.7	-1	.	-2	1	.	.

# 2 entries drawn at random from those above:
# Second line of a record – Sa RN4220 lethal	ugtP null kill	Autofluor counter	Mtb hypoxia rep	Mtb hypoxia rep growth	PrP UTR inh	BJeLR lethal
Nc1cc(S(=O)(=O)Nc2ccccc2Cl)ccc1N1CCCC1
  13	5	3757	-2	2	-8	-2
CCc1nc(N)c(C#N)c(-c2ccc(F)cc2)c1C
  -8.3	-1	2821	6	8	-8	-8
